KCNQ2 block: KCNQ2 channel blockers in CHO-K1 cells – cell-based, FluxOR thallium flux, B-score, primary screen (AID 2156). O88943. 20 min; active compounds read low; only compounds with negative scores are shown here; some inactives read as strong as hits. B-score at 10 µM. actives 1.1% (n = 310,000);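 active = fluorescence ratio B-score at most minus 3 library SDs, with starting brightness B-score within 2 library SDs, cut at about -5.5 in these data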
Target sequence (O88943 whole entry, looked up): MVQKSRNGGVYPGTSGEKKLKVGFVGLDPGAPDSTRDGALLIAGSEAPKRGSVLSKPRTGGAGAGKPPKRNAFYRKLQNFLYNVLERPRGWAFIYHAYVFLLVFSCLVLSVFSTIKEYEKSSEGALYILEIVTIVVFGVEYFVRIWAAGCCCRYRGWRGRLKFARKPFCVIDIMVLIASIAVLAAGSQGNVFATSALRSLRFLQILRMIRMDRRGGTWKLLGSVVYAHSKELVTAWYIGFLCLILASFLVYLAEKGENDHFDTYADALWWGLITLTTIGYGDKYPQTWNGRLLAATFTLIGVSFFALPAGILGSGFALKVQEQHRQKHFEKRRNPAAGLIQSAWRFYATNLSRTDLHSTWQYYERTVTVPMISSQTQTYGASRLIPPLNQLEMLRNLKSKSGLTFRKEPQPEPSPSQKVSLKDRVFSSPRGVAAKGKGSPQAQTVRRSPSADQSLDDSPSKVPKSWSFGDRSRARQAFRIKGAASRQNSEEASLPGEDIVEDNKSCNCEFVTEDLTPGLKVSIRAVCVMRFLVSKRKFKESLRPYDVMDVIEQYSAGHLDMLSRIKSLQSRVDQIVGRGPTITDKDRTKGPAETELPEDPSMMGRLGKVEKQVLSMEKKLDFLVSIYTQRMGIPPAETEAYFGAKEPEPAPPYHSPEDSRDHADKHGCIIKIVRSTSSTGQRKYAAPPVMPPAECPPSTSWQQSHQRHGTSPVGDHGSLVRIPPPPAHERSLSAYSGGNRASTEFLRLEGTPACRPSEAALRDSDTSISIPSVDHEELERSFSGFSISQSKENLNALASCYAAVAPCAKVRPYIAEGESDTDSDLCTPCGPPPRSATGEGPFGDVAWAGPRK
KCNQ2 block baseline: further read-out of KCNQ2 block, marked with its call; B-score; measured here: initial fluorescence intensity artifact check;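 brightness before thallium and not channel activity; 0 = typical well and far values either way flag optical interference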
An asterisk follows results filed as active; i = inactive.

SMILES	KCNQ2 block	KCNQ2 block baseline
OC(CCN1CCOCC1)(c1ccc(Cl)cc1)C1CCCCC1 (stereo not drawn)	-5.8*	1.6*
COC(C[C@@H](O)[C@@H](C)[C@H](O)COCc1ccccc1)OC	i	2.3
COC(CNC(=O)C(=O)Nc1ccc2c(c1)N(S(=O)(=O)c1cccs1)CCC2)OC	i	-0.82
CCn1nnnc1SCC(=O)N(C1CCCCC1)C1CCCCC1	i	-0.13
C=CCc1cccc2cc(C(=O)Nc3ccc(NC(C)=O)cc3)c(=O)oc12	i	0.58
Fc1ccc(Br)cc1SCCc1ccncc1	i	-1.2
Cc1c(Cl)cccc1S(=O)(=O)N1CCC(C(=O)NNC(=O)C2CC2)CC1	i	-0.26
CC1(C)C(=O)Nc2ccccc2N1C(=O)CSc1ncccn1	i	-0.05
CCCN1C(=O)c2ccccc2NC1c1ccc(Br)cc1 (stereo not drawn)	i	0.76
CN(CCCCN1CCOCC1)Cc1nc(-c2ccc3c(c2)OCO3)no1	i	-0.12
COCC(=O)Nc1c(C(=O)Nc2ccccc2OC)oc2ccccc12	i	0.47
CCCCCC(=O)Nc1ccc2oc(-c3ccncc3)nc2c1	i	0.98
CC(=O)NCCc1nc2ccccc2[nH]1	i	-2.3
COC(=O)Cc1c(O)ccn(Cc2ccc(Cl)c(Cl)c2)c1=O	i	0.76
O=C(Cn1cnc2c(nnn2Cc2ccccc2F)c1=O)N1CCN(c2ccccc2)CC1	i	0.04
Cc1cccc(NC(=O)CSc2nccn2Cc2ccco2)c1	i	0.28
CCOc1ccc(NC(=O)C2CCCN(S(=O)(=O)c3c(C)nn(C)c3C)C2)cc1 (stereo not drawn)	i	2.6
Cc1ccc2cc3c(nc2c1)N(Cc1ccco1)CC3	i	-0.44
CCNCc1ccc(OCc2cccs2)c(OCC)c1	i	2.7
O=C(NC(=S)NNS(=O)(=O)c1ccc(Cl)cc1)c1cccnc1	i	2

Some of the entries above, reformatted:
Every second line gives: KCNQ2 block | KCNQ2 block baseline
- Fc1ccc(Br)cc1SCCc1ccncc1
    i | -1.2
- Cc1ccc2cc3c(nc2c1)N(Cc1ccco1)CC3
    i | -0.44
- Cc1c(Cl)cccc1S(=O)(=O)N1CCC(C(=O)NNC(=O)C2CC2)CC1
    i | -0.26
- COC(CNC(=O)C(=O)Nc1ccc2c(c1)N(S(=O)(=O)c1cccs1)CCC2)OC
    i | -0.82
- C=CCc1cccc2cc(C(=O)Nc3ccc(NC(C)=O)cc3)c(=O)oc12
    i | 0.58
- COCC(=O)Nc1c(C(=O)Nc2ccccc2OC)oc2ccccc12
    i | 0.47
- CCOc1ccc(NC(=O)C2CCCN(S(=O)(=O)c3c(C)nn(C)c3C)C2)cc1 (stereo not drawn)
    i | 2.6

Following part.
SMILES	KCNQ2 block	KCNQ2 block baseline
CCN1CCN(C(=S)Nc2ccsc2C(=O)OC)CC1	i	0.08
COCC(C)N1CCC(n2nccc2NC(=O)c2ccccc2Cl)CC1 (stereo not drawn)	i	-1
O=C(N/C=C/c1ccccc1)Nc1ccc(Cl)cc1	i	2.1
O=C(Nc1ccc2c(c1)OCCO2)C1CCCN(c2ncccn2)C1 (stereo not drawn)	i	-0.15
Cc1cccc(NC(=O)CSc2nc3nc(C)cc(C)n3n2)c1	i	1.2
COC(=O)c1cc(NCc2c(F)cccc2Cl)ccc1N1CCOCC1	i	1.6
O=S(=O)(Nc1ccc(Cc2ccncc2)cc1)c1ccc(Cl)s1	i	0.07
CCN(CC)c1ccc(NC(=O)Nc2cccc(C(C)=O)c2)cc1	i	-0.88
CCOc1ccc(NC(=O)c2cc3ccccc3cc2OC)cc1	i	1.9
COc1cccc(C(=O)Nc2ccc(C(=O)NCC3CCCO3)cc2)c1 (stereo not drawn)	i	-2
Cc1cccc2sc(NC(=O)C3CCCN(S(=O)(=O)c4cccc5nonc45)C3)nc12 (stereo not drawn)	i	0.49
CCOc1ccc(S(=O)(=O)NCCC(=O)OCN2C(=O)c3ccccc3C2=O)cc1	i	-0.26
COc1ccc(/C(O)=C/Sc2nnc(Cc3ccccc3)o2)cc1	i	0.98
Cc1nnc(NC(=O)Oc2ccccc2)s1	i	0.13
CNC(=O)N(O)C1N(NC(=O)Nc2ccccc2)C(=S)SC1(C)C (stereo not drawn)	i	-0.49
COc1cccc(-c2nc(N3CCCCC3)c3ccccc3n2)c1O	i	1
COc1ccc(CCCNC(=O)C2CCC(=O)N(CCc3cccc(F)c3)C2)cc1 (stereo not drawn)	i	-0.33
CC1CCN(CCC(=O)NN)CC1	i	-1.9
N#CCC(=O)Nc1ccc(C(=O)N2CCN(S(=O)(=O)c3ccc4ccccc4c3)CC2)cc1	i	0.71
CCOc1ccc(-n2c(Cc3cc(=O)[nH]c(=O)[nH]3)nnc2SCc2cccnc2)cc1	i	0.17

Complete entries, quoted from the list. Values in the order: KCNQ2 block | KCNQ2 block baseline
Profile of N#CCC(=O)Nc1ccc(C(=O)N2CCN(S(=O)(=O)c3ccc4ccccc4c3)CC2)cc1 → i | 0.71
Profile of O=C(N/C=C/c1ccccc1)Nc1ccc(Cl)cc1 → i | 2.1
Profile of CCOc1ccc(-n2c(Cc3cc(=O)[nH]c(=O)[nH]3)nnc2SCc2cccnc2)cc1 → i | 0.17
Profile of Cc1cccc2sc(NC(=O)C3CCCN(S(=O)(=O)c4cccc5nonc45)C3)nc12 (stereo not drawn) → i | 0.49
Profile of CCN1CCN(C(=S)Nc2ccsc2C(=O)OC)CC1 → i | 0.08

Returning to the listing with the 2 entries that preceded the break.
SMILES	KCNQ2 block	KCNQ2 block baseline
N#CCC(=O)Nc1ccc(C(=O)N2CCN(S(=O)(=O)c3ccc4ccccc4c3)CC2)cc1	i	0.71
CCOc1ccc(-n2c(Cc3cc(=O)[nH]c(=O)[nH]3)nnc2SCc2cccnc2)cc1	i	0.17
O=C(NCc1ccco1)c1ccc(=O)oc1	i	1.1
O=[N+]([O-])c1cc(S(=O)(=O)N2CCCC2)ccc1NCCCN1CCOCC1	i	0.73
Cc1ccccc1CN1CCC(CNC(=O)C2CCCN(c3ncnc4c3nc3n4CCCCC3)C2)CC1 (stereo not drawn)	i	1.5
Cc1cccc(C(=O)Nc2nnc(Cc3c[nH]c4ccccc34)s2)c1	i	-0.9
CCN(CCCNC(=O)CN(C)S(=O)(=O)c1cccc2nsnc12)c1ccccc1	i	-0.44
COc1cc(/C=C(/C#N)c2ccc(F)cc2)ccc1Oc1ccc([N+](=O)[O-])cn1	i	0.9
Cc1ccc2oc(C(=O)N3CCN(C)C[C@@H]3C(C)C)c(C)c2c1	i	1.8
Cc1ccc(C(=O)N2CCCC2)cc1Br	i	-0.14
Cc1ccc2nc(CSc3nnc4ccccn34)cc(=O)n2c1	i	-0.75
COC(=O)c1sc(-c2ccc(C(C)(C)C)cc2)cc1NC(=O)c1ccccc1C(=O)O	i	-0.31
C=CCN(C(=O)c1cccc(C(F)(F)F)c1)C1(C(=O)Nc2ccccc2)CCN(C(C)C)CC1	i	-0.36
COC(=O)C1=C(C)C(c2ccc(OC)cc2OC)NC(=O)N1 (stereo not drawn)	i	-1.9
NS(=O)(=O)c1ccc(NC(=O)COC(=O)Cc2ccc(Cl)cc2)cc1	i	0.87
CCC1CCCCN1C(=O)c1noc(C(C)C)c1[N+](=O)[O-] (stereo not drawn)	i	2
COc1ccc(NC(=O)CN(C)CC(=O)NCC(=O)Nc2ccc(F)cc2)cc1	i	-1
CC(C)NC(=S)N1CCN(S(C)(=O)=O)CC1	i	-1.9
CCOc1cc(C2/C(=C(\O)c3cc(C)ccc3C)C(=O)C(=O)N2CCN(C)C)ccc1O (stereo not drawn)	i	-0.15
CN1CCN(C(=O)c2ccc3c(c2)N(Cc2cccc(Cl)c2)C(=O)c2ccccc2S3(=O)=O)CC1	i	0.71
NC(=O)CN1CCOCCOCCOCCOCCOCC1	i	-0.53
c1ccc(-n2nnc3ccccc32)cc1	i	1.2
COCCCNC(=S)NC(=O)c1ccccc1	i	-0.46
COc1ccc(CCNc2c([N+](=O)[O-])ncn2C)cc1OC	i	-0.8
COC(=O)[C@]1(CC(C)C)N[C@H](c2ccc(SC3CCCCC3)c(OC)c2)[C@@H]2C(=O)N(C)C(=O)[C@@H]21	i	-0.29
CCOC(=O)CSc1ncccn1	i	0.62
c1ccc(NCc2nc(-c3ccccc3)no2)cc1	i	1
Cc1ccccc1CNS(=O)(=O)c1c(C(=O)N2CCCCC2)c(C)n(C)c1C	i	1.5
CCOC(=O)c1ccc(NC(=O)NCc2cccnc2)cc1	i	-0.14
Cc1nc(-c2ccccc2)ccc1C(=O)O	i	-0.37
CC(C)c1ncc(S(=O)(=O)c2ccc(C(F)(F)F)cn2)c(N)n1	i	-0.79
COc1ccc(C(=O)c2ccccc2Cl)cc1	i	-1.2
N=c1n(CCN2CCCCC2)c2ccccc2n1CC(O)COc1ccccc1 (stereo not drawn)	i	-0.92
O=C(NNC1CC(=O)N(c2ccccc2)C1=O)c1cccnc1 (stereo not drawn)	i	0.87
COc1ccccc1OCC(=O)Nc1c2c(nn1-c1ccc(C)cc1)CS(=O)(=O)C2	i	-1.4
COc1ccccc1NC(=O)O/N=C(\N)c1ccccc1	i	-0.02
Cc1ccc(CN2CCN(CC(=O)O)C2=O)cc1	i	0.93
COc1ccc(CC(=O)NCc2nnc(SCC(=O)Nc3cccc(F)c3)n2C)cc1	i	1.4
CCCCN(C(=O)c1ccc(S(=O)(=O)N(C)C)cc1)c1ccccc1	i	-0.44
COc1ccccc1OCc1cc(C(=O)N2CC3C[C@@H]4CC2C[C@H](C3)C4)no1	i	-1
Cc1ccc(OCc2cc(C(=O)Nc3ccccc3)oc2C)cc1	i	-0.01
CN1C(=O)N(C)C2(CC1(C)C)CC(C)(C)N(C)C(=O)N2C	i	1.8
Cc1nc(N)nc(N/N=C/c2c(F)cccc2Cl)n1	i	-1.1
CC(=O)N1CCOc2ccc(S(=O)(=O)N3CCC(C(=O)Nc4ccc(C)cc4C)CC3)cc21	i	-0.31
NS(=O)(=O)c1ccc(CCNC(=O)CCc2ccccc2)cc1	i	0.97
Cc1ccc(NC(=O)CN(C)C(=O)CCOc2ccccc2C)cc1	i	-2.4
CCN(C=NC1=NN(c2cccc(C(F)(F)F)c2)CC1)CC	i	-0.51
O=C(COc1ccc(Cl)cc1)Nc1ccccc1CO	i	0.26
CSc1nc(C)c(C(=O)C[n+]2ccccc2)cc1C#N	i	-0.52
CCOc1ccccc1NC(=O)NC1Cc2ccccc2C1	i	0.39
Cc1ccc2[nH]c(-c3ccccc3)c(CN3CCCC3)c(=O)c2c1	i	1.1
CC(C)n1cnc2c(Nc3cccc(Cl)c3)nc(NCCCO)nc21	i	0.11
COc1cc2[nH]c(=O)n(CCC(=O)N3CC=C(c4ccccc4)CC3)c(=O)c2cc1OC	i	0.27
CC(O)Cn1c(N2CCCC2)nc2c1c(=O)n(C)c(=O)n2C (stereo not drawn)	i	3.2
N/C(CSc1nc(-c2ccccc2)c(-c2ccccc2)o1)=N\O	i	-0.03
CCC(CC)NC(=O)c1ccc(NS(=O)(=O)c2ccc3[nH]c(=O)[nH]c3c2)cc1	i	-0.72
COc1ccc(S(=O)(=O)N2CCCCC2)cc1NC(=S)Nc1cccc(Cl)c1C	i	0.53
CC1CCC(C(C)C)C(OC(=O)CSc2nnc(N)s2)C1 (stereo not drawn)	i	0.02
Cc1c(-c2ccc(F)cc2)[n+](=O)c2c(n1[O-])CCCCC2	i	0.33
CN(CCO)c1cc(Sc2nc3ccccc3s2)c2nonc2c1[N+](=O)[O-]	i	-0.01
COc1ccc(NC(=O)CN2C(=O)COc3ccc(S(=O)(=O)N4CCCCC4)cc32)c(OC)c1	i	-1.7
COc1cccc(OCCNC(=O)c2cccc(OC)c2)c1	i	-0.42

Further structures
SMILES	KCNQ2 block	KCNQ2 block baseline
O=C(Nc1ccccc1C(=O)Nc1ccccc1)c1ccccc1Br	i	2.2
COc1cccc(NC(=O)N2CCCc3ccccc32)c1	i	-1.1
COc1ccc(NC(=O)CSc2nnc(C)c(=O)n2N)cc1	i	0.47
COc1ccc(C2=NN(C(=O)CSc3nc4ncc(Cl)cc4[nH]3)C(c3ccco3)C2)cc1 (stereo not drawn)	i	-0.28
O=C(N/N=C/c1ccccn1)C(O)c1ccccc1 (stereo not drawn)	i	-0.91
COc1ccc(CCNC(=O)CN2C(=O)c3ccccc3S2(=O)=O)cc1	i	-0.04
CC1CCN(CC(=O)Nc2ccc(Br)cc2[N+](=O)[O-])CC1	i	-0.05
COc1ccc2nc(SC(C(=O)c3ccccc3)c3ccccc3)nc(C)c2c1 (stereo not drawn)	-5.6*	0.06*
COc1ccc(CCN2CC(C(=O)NCCc3ccccc3)CC2=O)cc1OC (stereo not drawn)	i	0.27
Cc1ccc(-c2cc(C(=O)Nc3ccccc3C)c3ccccc3n2)o1	-10*	-1.3*
COc1ccc(OCCOC(=O)c2nc3nccc(C)n3n2)cc1	i	0.08
Cc1ccc(OCC(=O)Nc2oc(-c3ccccc3)c(-c3ccccc3)c2C#N)cc1	i	-0.08
COc1ccc(C2Nc3ccccc3C(=O)N2c2ccc(C)cc2)cc1Cn1nc(C)c([N+](=O)[O-])c1C (stereo not drawn)	i	-1.4
CCCN1CCC(NC(=O)CC2C(=O)NCCN2Cc2ccccc2C)CC1 (stereo not drawn)	i	0.67
O=C(Cc1ccccc1)N1CCN(c2ncccn2)CC1	i	0.79
COCCN(C(=O)COc1ccccc1C#N)c1c(N)n(Cc2ccccc2)c(=O)[nH]c1=O	i	-0.01
Cc1cccc(C)c1NS(=O)(=O)c1cc2c3c(c1)CCN3C(=O)CC2	i	-0.06
Cn1c(=O)n(CCOc2ccccc2Cl)c2ccccc21	i	-0.09
CCCCCCC(=O)N(O)C1CC(=O)N(c2ccc(Cl)cc2)C1=O (stereo not drawn)	i	2.6
COc1ccc(CNC(=O)Cn2ncn3c(cc4ccccc43)c2=O)cc1	i	-2.2
CCOC(=O)Nc1sc(C(=O)N(CC)CC)c(C)c1C(=O)OCC	i	1.1
CCCCN(Cc1ccccc1)C(=O)C1CCN(Cc2sccc2C)CC1	i	-0.25
CCOC(=O)/C(=N/Nc1ccc(OC)cc1)Sc1nnc(CCc2ccccc2)n1-c1ccccc1	i	0.33

Compound activity from PubChem BioAssay.

These rows are one share of the data; the hit share may differ from the screen's.
